Ecoli growth: E. coli growth inhibition, primary screen, OD600 | Escherichia coli growth, 23 h; active compounds read low | OD600 absorbance (no concentration beside the values) | actives 0.21% (n = 330,000) | AID 1053175, 2014;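 active = OD600 absorbance below the run mean of sample wells minus 3.6 SD, in any replicate, cut at about 0.56 in these data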;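 also: stock transfer was 300 nL into about 60 µL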
Beta cell apopt: inhibitors of cytokine-induced beta cell apoptosis, primary screen, luminescence; INS-1E cytokine-induced death, ATP luminescence, 48 h; percent of positive-control rescue, neutral wells zero; protection from apoptosis, % (concentration not given with the values); actives 0.8% (n = 300,000); AID 435005, 2010;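 active = all replicates at 75% or more, or half of them and the mean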;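 also: 0% = cytokine-treated negative control wells and 100% = positive control rescue; higher means more ATP so stronger rescue from cytokine killing; wells of about 40 µL received 100 nL stock; the first replicate is given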
FGF22 binding: binders of human FGF22 protein, primary screen, FGF22 synaptogenesis inhibitor project, biophysical, thermal shift, single point. Fibroblast growth factor 22 (Homo sapiens), Q9HCT0. recombinant FGF22 thermal shift, SYPRO orange fluorescence; percent of sucrose octasulfate shift, DMSO zero. calls only at 9.99 µM. actives 1.5% (n = 340,000);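 active = melting point raised past a set limit in the mean and every replicate; three in four hits are not shown here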
Target sequence (Q9HCT0 whole entry, looked up): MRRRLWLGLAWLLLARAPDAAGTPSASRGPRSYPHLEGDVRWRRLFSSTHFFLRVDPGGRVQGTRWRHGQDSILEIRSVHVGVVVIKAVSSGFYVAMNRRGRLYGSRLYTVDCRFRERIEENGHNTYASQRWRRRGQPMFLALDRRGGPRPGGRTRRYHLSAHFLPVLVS
AF4-AF9 inh: inhibitors of AF4 peptide binding to AF9, primary screen, biochemical, AlphaScreen, biotin-AF4 peptide, FLAG-AF9, single point | Protein AF-9 (Homo sapiens), P42568 | inhibition, % at 10 µM | actives 0.47% (n = 350,000) | AID 651704, 2012;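 active = every replicate reaching a set inhibition limit, whatever the replicate mean, cut at about 25% in these data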;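 also: 0% = plate neutral control median and 100% = total signal loss; the record names both 10 and 1 µM as test concentration; the first replicate is given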
Target sequence (P42568 whole entry, looked up): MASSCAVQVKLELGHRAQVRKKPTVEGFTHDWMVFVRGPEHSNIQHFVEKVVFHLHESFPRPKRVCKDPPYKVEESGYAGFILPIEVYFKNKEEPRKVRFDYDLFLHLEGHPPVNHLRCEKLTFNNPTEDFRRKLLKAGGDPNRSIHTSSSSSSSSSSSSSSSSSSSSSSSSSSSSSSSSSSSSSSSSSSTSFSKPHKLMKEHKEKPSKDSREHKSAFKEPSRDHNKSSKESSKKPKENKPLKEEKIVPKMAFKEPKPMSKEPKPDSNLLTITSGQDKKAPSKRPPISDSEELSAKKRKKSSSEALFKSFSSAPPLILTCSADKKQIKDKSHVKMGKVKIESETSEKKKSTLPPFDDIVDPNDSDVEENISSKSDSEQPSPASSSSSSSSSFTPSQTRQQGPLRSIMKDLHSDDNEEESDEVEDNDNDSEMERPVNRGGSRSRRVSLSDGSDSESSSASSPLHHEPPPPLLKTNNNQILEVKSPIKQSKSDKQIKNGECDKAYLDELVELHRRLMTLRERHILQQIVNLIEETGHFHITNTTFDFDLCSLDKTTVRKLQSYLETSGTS
UCH37 inh: inhibitors of human UCH37 deubiquitinase, primary screen, biochemical, Ub-AMC cleavage, fluorescence | purified proteasome/UCH37 | inhibition, % (concentration not given with the values) | actives 0.33% (n = 330,000) | AID 588478, 2011;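 active = mean of two replicates above 20%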;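 also: 0% = compound-free wells with enzyme and 100% = wells lacking proteasome; stock transfer was 100 nL into about 20 µL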
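Schedule: 30 min plus 25 min, room temperature / Material: human UCH37 within purified proteasomes / Technique: AMC fluorescence intensity at 355/460 nm / Buffer or medium: pH 7.4 Tris-HCl (50 mM) with ovalbumin, ATP-MgCl2, DTT / Controls: wells without proteasome as full block, compound-free enzyme plus substrate as uninhibited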
T cruzi inh: inhibitors of intracellular T. cruzi growth, primary screen, luminescence, NIH3T3 host cells | inhibition, % (test concentration not listed) | actives 1.4% (n = 300,000) | T. cruzi beta-gal in NIH3T3, 90 h;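 active = mean inhibition across valid replicates above about 55%, limit read from the data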;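 also: signal also drops with host cell toxicity which is not excluded here; 0% = plate median of DMSO wells and 100% = zero luminescence signal; higher percent means less beta-gal luminescence so fewer parasites; stock transfer was 50 nL into about 50 µL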
rRNA inh HTS: reduced GFP signal of wild-type E. coli, primary screen, bacterial rRNA inhibitor project, GFP/RFP fluorescence, OD600, single point. E. coli WT GFP vs humanized-ribosome RFP mutants, 24 h; active compounds read low; DMSO median 0, no signal -100. GFP signal change (wild-type ribosome), % (no concentration beside the values). actives 1.6% (n = 350,000);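 active = significant combined selectivity score with lowered wild-type GFP, culture density cut under 30%, mutant RFP and density less affected; inactive = any of these conditions unmet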; also: one replicate is shown; some compounds called inactive have numbers as strong as hits
A1 inh: caspase 3/7 activation in MEF A1-2A-BIM cells, primary screen, A1 inhibitor project, cell-based, luminescence, HTS | Caspase-Glo 3/7 luminescence, 3 h; percent of clofoctol response, vehicle zero | caspase activation, % (no concentration beside the values) | actives 0.066% (n = 330,000) | AID 2462, 2010;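 active = over half of replicate activation scores above 10%, or exactly half above 10 with the replicate mean above 10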;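 also: wells of about 30 µL received 50 nL stock; many hits fall short of the cut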
rRNA inh HTS OD600: further read-out of rRNA inh HTS, marked with its call; OD600 change, %; measured here: OD600 growth;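 optical density of the mix in the first replicate; 0 = DMSO median and -100 = no signal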
rRNA inh HTS RFP: also measured in rRNA inh HTS; calls as there; RFP signal change, %; measured here: RFP humanized mutant strains;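 first replicate; 0 = DMSO median and -100 = no signal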
* hit, by the source's call; i = inactive; / = not tested or not shown. A portion of the library; rates above refer to the full screens.

SMILES,rRNA inh HTS OD600,rRNA inh HTS,Beta cell apopt,rRNA inh HTS RFP,A1 inh,UCH37 inh,Ecoli growth,AF4-AF9 inh,T cruzi inh,FGF22 binding
COc1ccc(C2SCC(=O)Nc3c2c(=O)[nH]n3C2CCCCC2)cc1 (stereo unspecified),/,/,-0.4,/,-1.4,1.4,0.683,/,2.1,/
Cc1ccc(S(=O)(=O)N[C@@H](CCCCN)C(=O)CCl)cc1,/,/,/,/,0.3,5.6,/,12.6,-0.1,i
CN(C)CCc1nn[nH]n1,9.2,17.2,2.9,-5.3,0.9,1.3,0.669,5.8,-14.6,i
O=C(c1cccn2c(=O)c3ccc(Cl)cc3nc12)N1CCC2(CC1)OCCO2,12.6,18.2,2.9,-7.2,0.8,i,0.657,0.4,-13.3,i
CCC1(CC)C(=O)NC(=Nc2cccc(C(F)(F)F)c2)NC1=O,5.6,0.5,1.2,2.2,1.0,-0.3,0.683,/,-14.1,/
CCOP(=O)(OCC)C(NC(=O)c1cccc(C)c1)C(Cl)(Cl)Cl (stereo unspecified),8.0,7.1,-4.6,-1.2,0.5,4.2,0.64,-4.7,-18.9,i
COc1cc(CN2CC3CC(C2)c2cccc(=O)n2C3)cc(OC)c1OC (stereo unspecified),-13.3,5.2,2.0,-2.1,0.1,0.7,0.662,4.3,20.8,i
COP(=O)(Cc1ccc(C#N)o1)OC,-4.9,12.9,-2.3,0.5,-0.3,0.0,0.692,0.8,8.6,i
C=CCN1C(=O)NC(=O)/C(=C/c2ccc(OC)c(CSc3ccccn3)c2)C1=O,/,/,-8.8,/,0.2,4.6,0.694,/,-0.4,/
CCOc1ccc(C(C)=O)cc1Cc1c(O)[nH]c(=S)[nH]c1=O,12.9,14.1,-2.8,2.8,0.3,5.4,0.685,-0.7,-14.3,i
Nc1ccc(N2CCN(Cc3ccccc3Cl)CC2)c(Cl)c1,/,/,0.6,/,4.1,1.0,0.682,/,9.2,/
O=C1NC(=O)C(=Cc2ccccc2Oc2ccc(F)cc2)C(=O)N1,12.0,6.0,/,-0.7,/,0.9,0.611,-6.8,/,i
CCn1c(O)c(N=Nc2cccc(S(=O)(=O)N3CCOCC3)c2)c(=O)n(CC)c1=S,8.5,19.1,0.8,-1.5,0.4,4.6,0.663,-1.7,-9.3,i
N=C1c2ccccc2CN1NC(=O)c1ccc(F)cc1,/,/,-2.3,/,-0.7,0.2,0.643,/,5.0,/
COc1cc2c(cc1OC)C13CCN4CC5=CCOC6CC(=O)N2C1C6C5C3C4 (stereo unspecified) (tested in a mixture with another compound),5.2,6.3,/,-1.7,/,3.9,0.679,0.9,/,i
S=C(N1CCCCCC1)N1CC1,/,/,/,/,/,0.8,0.642,0.9,/,i
CC(C)NS(=O)(=O)c1ccc(OCC(=O)N2CCN(Cc3ccc4c(c3)OCO4)CC2)c(Cl)c1,-6.8,-2.7,8.0,6.0,0.7,0.6,0.715,/,11.1,/
N#CCCn1cc(C(=O)O)c(-c2cccc([N+](=O)[O-])c2)n1,1.8,8.5,-4.6,2.4,0.6,-0.1,0.708,2.1,-7.7,i
COC(=O)C1=C(c2cc3ccccc3s2)C[C@@H]2CC[C@H]1N2C(=O)NC(C)C,-10.2,-10.2,-3.4,-0.8,0.2,2.4,/,6.1,10.8,i
Clc1ccc2sc(C3CCNCC3)nc2c1,4.7,7.1,-2.5,-0.5,-0.3,1.7,0.663,-16.8,21.1,i
Cc1c(N=Nc2c(O)n(Cc3ccccc3)c(=O)[nH]c2=O)c(=O)n(-c2ccccc2)n1C,/,/,43.0,/,-0.1,15.2,0.701,/,-24.7,/
c1ccc(-c2ccc(-c3n(-c4ccccn4)c4ccccc4[n+]3-c3ccccn3)cc2)cc1,-71.2,-48.8,/,1.3,/,-247.7,0.734,7.8,59.9*,i
CN(C)CCN(C(=O)COc1ccc(Cl)cc1)c1nc2cc3c(cc2s1)OCO3,-12.9,-5.2,/,-6.2,0.3,4.1,0.654,-1.9,34.8,i
Cc1ccccc1N1C(=O)CC(=O)N(c2ccccc2C)C1=O,12.5,20.3,/,1.6,0.4,1.9,0.725,-0.3,-22.5,i
CC(=O)n1cc(C=C2C(=O)NC(=O)NC2=O)c2ccccc21,13.2,10.0,-9.7,4.4,1.7,/,/,-5.3,3.7,i
O=C(NC(Oc1ccccc1)C(Cl)(Cl)Cl)c1ccccc1 (stereo unspecified),/,/,/,/,1.5,4.4,0.719,/,-0.4,/
CCOC1=C(N2CC2)C(=O)C(OCC)=C(N2CC2)C1=O,13.3,23.4,/,6.5,/,5.0,0.691,1.5,/,i
Oc1ccc(CC2(N3CCCC3)CCCCC2)cc1,-2.6,-0.3,0.7,-5.8,-2.3,1.5,0.704,-9.5,-17.4,i
COc1ncccc1C(=O)NCC(CC(=O)O)c1ccccc1 (stereo unspecified),/,/,-3.6,/,0.3,-1.2,0.624,/,0.6,/
N#CC(=C(O)c1ccc(S(=O)(=O)N(CCCl)CCCl)cc1)c1nc2ccccc2[nH]1,8.4,5.4,/,-0.2,/,-217.8,0.677,-2.0,/,i
COc1cccc(CNCCc2ccc3c(c2)OCO3)c1OC,4.2,14.9,/,-1.3,0.0,5.8,0.655,4.6,31.0,i
CN1CCN(Cc2nc3ccccc3n2C)CC1,/,/,-2.2,/,-0.9,2.4,0.658,/,35.7,/
CCN1CCN(c2ccc(N)c(C)c2)CC1,8.4,1.3,1.2,9.6,0.4,2.1,0.715,36.6*,30.2,i
CCOC(=O)CC(SP1(=S)OCC2(CCCCO2)C(C2CCCCO2)O1)C(=O)OCC (stereo unspecified),-5.7,-0.1,/,4.3,/,0.3,0.694,0.0,/,i
O=c1[nH]c(=S)n(C2CC2)c(O)c1C=NCCN1CCOCC1,2.8,10.7,-8.0,-0.2,0.2,8.8,0.679,-1.5,-38.0,i
CSc1ccccc1C(=O)C1CCCN(Cc2cccc(C)n2)C1 (stereo unspecified),6.2,11.7,3.7,4.5,0.6,1.2,0.729,1.6,43.6,i
C[C@]12CC[C@H](O)CC1=CCC1C2CC[C@]2(C)C(=O)[C@H](Br)CC12 (stereo partly specified),-24.0,-19.4,-22.7,0.2,-0.3,/,/,-1.9,/,i
Cc1ccc2c(c1)CCCN2N=O,/,/,/,/,0.0,0.0,0.666,/,-12.4,/
c1cncc(CNCCc2ccc3c(c2)OCO3)c1,2.8,3.3,-0.8,-3.2,0.3,0.1,0.696,3.2,4.7,i
CC1N=C(c2ccccc2Cl)c2cc(Br)ccc2NC1=O (stereo unspecified),-4.3,-4.2,-0.7,-0.4,-0.8,3.1,0.684,1.4,4.1,i
CC(=O)N(C)C1=Nc2ccc(Cl)cc2C(c2ccccc2)=[N+]([O-])C1,4.9,-1.7,/,-3.6,/,5.3,0.707,-0.8,/,i
CCN1C(=O)c2ccccc2Sc2ccc(C(=O)N3CCC4(CC3)OCCO4)cc21,-12.0,-12.5,6.6,-6.9,-1.3,-1.8,0.635,8.5,18.2,i
N/C(=N/[N+](=O)[O-])N1CCN(C(=O)Oc2ccc([N+](=O)[O-])cc2)CC1,24.2,10.6,-4.9,2.7,0.2,/,/,-3.3,0.9,i
CN(C)P1(N(C)C)=NC(C(F)(F)F)=NC(C(F)(F)F)=N1,/,/,/,/,0.9,1.2,0.718,/,-15.5,/
Oc1cccc2cccnc12,/,/,/,/,0.2,/,/,-2.4,-7.7,i
CCOP(=O)(Oc1ccccc1)c1c([N+](=O)[O-])cc(C(F)(F)F)cc1[N+](=O)[O-] (stereo unspecified),15.6,10.7,-4.5,0.3,-0.3,2.8,0.648,-1.9,-7.8,i
COc1ccc(-n2c(O)c(C(C)=NCCN3CCNCC3)c(=O)[nH]c2=O)cc1,/,/,0.5,/,0.3,3.7,0.712,/,-18.2,/
N#CC1=C(N)Oc2c(c(=O)sc3ccccc23)C1c1cccnc1 (stereo unspecified),-11.9,19.6,24.8,17.5,-1.3,0.2,0.728,-4.9,76.8*,/
COC(=O)C1=C(c2ccc(F)cc2F)C[C@@H]2CC[C@H]1N2C(=O)NCCCOC(C)C,5.1,11.9,-1.1,-5.9,0.1,2.8,/,1.1,/,i
CCCNC(=O)N1[C@H]2CC[C@@H]1C(C(=O)OC)=C(c1cccc(C#N)c1)C2,3.4,10.1,0.0,-7.0,-0.4,4.5,/,-1.6,/,i
Cc1ccc(-n2c(O)c(C=NCc3ccco3)c(=O)[nH]c2=S)cc1C,0.9,9.7,0.8,5.2,-0.1,6.7,0.667,-2.5,-12.3,i
O=C(CN1CC=C(c2ccccc2)CC1)Nc1cc(Cl)ccc1Cl,-2.8,-18.0,-2.5,10.7,0.3,4.1,0.715,-83.7,8.7,i
C=CCn1c(O)c(C(CC)=NCc2ccco2)c(=O)[nH]c1=O,-14.8,3.4,/,-1.5,-0.3,3.5,0.66,1.5,-8.6,i
COc1cc2c(c(OC)c1)C(=O)OC(C)CCCC(=O)CCCCC2 (stereo unspecified),7.3,5.0,-4.0,2.3,0.1,0.6,0.665,1.3,2.7,i
CC(c1ccc(F)cc1)n1cc(C(=O)NCc2ccc3c(c2)OCO3)nn1 (stereo unspecified),/,/,-1.4,/,0.7,3.7,0.728,/,7.1,/
O=c1c2ccccc2nc(/C=C/c2ccccc2O)n1-c1ccccc1O,-10.9,-15.8,6.3,0.5,0.8,/,/,-3.3,11.4,i
N=c1n(CCO)c2ccccc2n1Cc1ccccc1,/,/,1.6,/,-0.2,2.3,0.718,/,-14.4,/
CCN(CC)c1ccc(N=Cc2c(O)n(-c3ccc(OC)cc3)c(=O)[nH]c2=O)cc1,/,/,-13.6,/,-0.6,4.8,0.68,/,20.0,/
CCN1C(=O)NC(=O)/C(=C\c2cn(CC(=O)N3CCCC3)c3ccccc23)C1=O,12.1,58.7,3.6,42.6,0.3,1.9,0.703,-26.8,-21.1,i
COc1ccc(S(=O)(=O)NCc2ccc(C(=O)N3CCC4(CC3)OCCO4)cc2)cc1,0.7,8.1,1.1,-11.8,-0.2,0.2,0.728,-15.1,12.0,i
COC(=O)C1=C(c2c(C)noc2C)C[C@@H]2CC[C@H]1N2C(=O)NCCOc1ccc(OC)cc1,2.8,10.7,7.6,-2.2,1.1,0.8,/,-7.3,/,i
COc1ccc(OC)c(-n2c(O)c(/C=C3\C=Nc4ccccc43)c(=O)[nH]c2=O)c1,12.8,21.8,-2.3,2.2,1.1,/,/,2.8,-6.3,i

High-throughput results from PubChem.
